# H5N1 antiviral: antiviral screen in MDCK cells, H5N1 avian flu | cytopathic effect, luminescence, 72 h; hits give high values; no value below 0 was filed and about half of the inactive calls have no number; reference of the scale not given here | inhibition, % at 50 µM | 0.07% of 96,000 active | AID 740; in the data active = inhibition above about 25%
# Numbers without * were called inactive; i = inactive. A portion of the library; count on the stated rates, not on these rows.
SMILES,H5N1 antiviral
Cc1cc(=O)oc2cc(NC(=O)CCC(=O)O)ccc12,i
O=C(Cc1ccccc1)N1CCC(C(=O)N2CCN(c3ccc(F)cc3)CC2)CC1,0.8
Cc1ccc(C(=O)O)cc1S(=O)(=O)N1CCCC1,1.3
Cn1c(=O)c2[nH]cnc2n(-c2ccccc2)c1=O,0.1
COCCN(C(=O)CNC(=O)c1ccco1)C(C(=O)NC1CCCCC1)c1cccc(OC)c1 (stereo not drawn),0.8
Cc1cccc(C)c1NC(=O)C1NC(=O)CC1c1ccccc1 (stereo not drawn),1.4
C=CCNCCCCOc1c(Cl)cc(C)cc1Br,i
CC1(C)CC(=O)C=C(NCc2ccncc2)C1,i
COc1ccc(C2(CNC(=O)/C=C\c3ccco3)CCCC2)cc1OC,2.2
Cc1noc(C)c1S(=O)(=O)N1CCCC(C(=O)Nc2ccc(Cl)cn2)C1 (stereo not drawn),0.2
CCN(CC)S(=O)(=O)c1ccc2[nH]c(=O)[nH]c2c1,i
O=C1NCCCC2c3c(cc(Br)c(O)c3Br)OC12N1CCCCC1 (stereo not drawn),i

# The final five compounds of the section above come first, to join the parts:
SMILES,H5N1 antiviral
CC1(C)CC(=O)C=C(NCc2ccncc2)C1,i
COc1ccc(C2(CNC(=O)/C=C\c3ccco3)CCCC2)cc1OC,2.2
Cc1noc(C)c1S(=O)(=O)N1CCCC(C(=O)Nc2ccc(Cl)cn2)C1 (stereo not drawn),0.2
CCN(CC)S(=O)(=O)c1ccc2[nH]c(=O)[nH]c2c1,i
O=C1NCCCC2c3c(cc(Br)c(O)c3Br)OC12N1CCCCC1 (stereo not drawn),i
CS(=O)(=O)Nc1ccc(C(=O)NCCSCc2ccco2)cc1,0.1
Cc1c(C)c2ccc(OC3CCCCC3=O)cc2oc1=O (stereo not drawn),0.0
Cn1c(C(=O)NCCC2=CCCCC2)cc2c(=O)n3ccccc3nc21,i
Cn1c(=O)[nH]c(=O)c2[nH]c(N(Cc3ccccc3)Cc3ccccc3)nc21,i
O=[n+]1c2c(n([O-])c3cc(F)ccc31)CCCC2,0.1
O=[N+]([O-])c1ccc(Nc2nc(N/N=C\c3ccc4c(c3)OCO4)nc(N3CCCCC3)n2)cc1,0.7
CCOC(=O)c1c(C)[nH]c(/C(C)=N/O)c1C,1.9
Oc1c(Br)cc(Br)cc1/C=N/c1nc2c(s1)CCCC2,i
COc1ccc(NC(C)=O)cc1NC(C)C(=O)Nc1cccc2ccccc12 (stereo not drawn),i
O=C(Nc1cccc(O)c1)c1cc(-c2ccco2)on1,2.0
O=S(=O)(N1CCCCC1)n1c(Cc2ccccc2)nc2ccccc21,i
CCOc1ccccc1N1CC(C(=O)Nc2ccc(C(=O)O)cc2)CC1=O (stereo not drawn),0.5
Cc1cc2cc(CNC(=O)Nc3cccc(Cl)c3)ccc2n1C,i
CC1(C)CC(NC(=O)C(F)(F)F)CC(C)(C)N1OC(=O)c1ccco1,0.2
CC(Sc1nnc(-c2cccs2)n1-c1ccccc1)C(=O)NCc1ccc2c(c1)OCO2 (stereo not drawn),2.4
Cc1ccc(C)c(NC(=O)CCC(=O)OC(C(=O)c2ccccc2)c2ccccc2)c1 (stereo not drawn),i
CC(=O)c1cccc(NC(=O)C2CCCN(S(=O)(=O)c3ccc(F)cc3)C2)c1 (stereo not drawn),1.0
Cn1c(=O)cc(SCC(=O)N2CCN(Cc3ccc4c(c3)OCO4)CC2)c2ccccc21,1.4
CC(=O)c1cccc(NC(=O)Oc2ccccc2)c1,i
CCOC(=O)C1CCCN(Cc2cc(Br)ccc2OC)C1 (stereo not drawn),i
Cc1ccc2c(c1)N(CCCC(=O)NCC1COc3ccccc3O1)C(=O)CO2 (stereo not drawn),2.0
CC(C)c1ccc(/C=C2\CC/C(=C\C=N\N(C)C)C2=O)cc1,i
CC(C)(C)n1nnnc1C(c1cccs1)N(Cc1cccnc1)CC1CCCO1 (stereo not drawn),i
CCOC(=O)C1CCCN(C/C(O)=C(\C#N)c2nc(-c3ccc(Cl)cc3)cs2)C1 (stereo not drawn),0.2
Cc1ccc2oc(-c3cccc(NC(=O)c4ccc(Br)o4)c3C)nc2c1,i
COc1ccc(OC)c(S(=O)(=O)N2CCN(C34CC5CC(CC(C5)C3)C4)CC2)c1,14.3
CCCc1cc(C(=O)NCC(C)C)no1,0.1
O=C1CCC(Cc2ccccc2)N1 (stereo not drawn),0.9
CC1CCCCN1C(=O)c1ccc(C(=O)N2CCCCC2C)cc1 (stereo not drawn),0.1
CC(=O)c1ccc(NS(=O)(=O)c2ccc(C)cc2)cc1,0.0
CCOC(=O)CSc1cc(C)nc(N)n1,i
COc1ccc(N2CCN(CCNC(=O)CCCn3c(=O)[nH]c4cc(Cl)ccc4c3=O)CC2)cc1,i
COCCN(C(=O)CNC(=O)c1cccs1)C(C(=O)NC1CCCCC1)c1ccco1 (stereo not drawn),i
COc1ccccc1CN(Cc1cc2c(C)ccc(C)c2[nH]c1=O)Cc1nnnn1Cc1ccco1,i
CC(C)CCNC(=O)CNC(=O)c1cccs1,3.8
CCCC1(C(=O)O)NC(c2ccccc2O)C2C(=O)N(c3cccc(Cl)c3)C(=O)C21 (stereo not drawn),i

# Quoted from the listing.
# COc1ccc(OC)c(S(=O)(=O)N2CCN(C34CC5CC(CC(C5)C3)C4)CC2)c1 in H5N1 antiviral: 14.3
# CC(=O)c1ccc(NS(=O)(=O)c2ccc(C)cc2)cc1 in H5N1 antiviral: 0.0
# O=C1CCC(Cc2ccccc2)N1 (stereo not drawn) in H5N1 antiviral: 0.9
# CC(C)CCNC(=O)CNC(=O)c1cccs1 in H5N1 antiviral: 3.8

# More entries
SMILES,H5N1 antiviral
CC(c1ccccc1)C1CC(=O)N(c2ccc(C(=O)O)cc2)C1=O (stereo not drawn),0.9
COc1cccc(C(=O)CSc2nnc(-c3cc(OC)cc(OC)c3)o2)c1,0.2
Cc1cc(C)n(C(=O)CSc2nnc(SCC(=O)n3nc(C)cc3C)s2)n1,0.1
Cc1ccc(-c2nc3cnccn3c2Nc2ccccc2)o1,i
O=C1NC(c2ccc(Br)cc2)Nc2sc3c(c21)CCC3 (stereo not drawn),i
COC(=O)c1cccc(NS(=O)(=O)c2ccc(OC)c(OC)c2)c1C,1.4
Nc1c(N2CCCC2)cc(Cl)c2nonc12,i
N#Cc1c(NC(=O)CN2CCOCC2)oc(-c2ccccc2)c1-c1ccccc1,i
O=C(CCCSc1nc2ccccc2[nH]1)Nc1nnc(-c2ccccc2)o1,0.4
COc1ccc(-c2cc(C(=O)N3CCc4ccccc4C3)no2)cc1OC,i
CCc1ccc(C2N(c3ccc(OC)cc3)C(=O)C3CCCN32)cc1 (stereo not drawn),1.6
CCC(C)(C(=O)NC1CCCC1)N(Cc1ccco1)C(=O)c1ccc2c(c1)OCO2 (stereo not drawn),i
O=C(Cn1cc2c(n1)CCCC2)N1CCCc2ccccc21,1.5
CCOc1cccc(C(=O)N2CCCCC2c2cccnc2)c1 (stereo not drawn),0.8
Cc1cc(C)c(NC(=O)c2ccoc2C)c(C)c1,1.3
CN(C)CCC(=O)NCC1OCCc2ccccc21 (stereo not drawn),0.8
CC(Sc1nnc(-c2cccnc2)n1-c1ccccc1)C(=O)NCc1ccc2c(c1)OCO2 (stereo not drawn),0.8
COc1ccc(C(C)C)cc1S(=O)(=O)N1CCN(C)CC1,i
CCn1c(SCC(=O)c2ccc(O)c(O)c2)nnc1-c1ccc(C)cc1,4.5
O=C1CC(c2nc3ccccc3[nH]2)CN1Cc1ccccc1 (stereo not drawn),0.3
CCOC(=O)C1CCN(C(=O)CN(c2ccc3c(c2)OCCO3)S(C)(=O)=O)CC1,0.1
Cc1ccc(S(=O)(=O)NC(=NC(C)C(=O)O)c2ccccc2)cc1 (stereo not drawn),1.1
CC1(C)Cc2[nH]c(=S)c(C#N)cc2CO1,1.1
CCOc1ccc(CC(=O)Nc2c(C(=O)Nc3ccccc3)oc3ccccc23)cc1OCC,i

# Structures listed so far containing a thiophene ring, fused or not, in the order listed:
SMILES,H5N1 antiviral
CC(Sc1nnc(-c2cccs2)n1-c1ccccc1)C(=O)NCc1ccc2c(c1)OCO2 (stereo not drawn),2.4
CC(C)(C)n1nnnc1C(c1cccs1)N(Cc1cccnc1)CC1CCCO1 (stereo not drawn),i
COCCN(C(=O)CNC(=O)c1cccs1)C(C(=O)NC1CCCCC1)c1ccco1 (stereo not drawn),i
CC(C)CCNC(=O)CNC(=O)c1cccs1,3.8
O=C1NC(c2ccc(Br)cc2)Nc2sc3c(c21)CCC3 (stereo not drawn),i

# (more compounds)
SMILES,H5N1 antiviral
Cc1ccc2c(c1C)NC(C)CC2C (stereo not drawn),0.2
Cc1oc2cc(O)ccc2c(=O)c1-c1cnn(-c2ccccc2)c1,4.3
O=C(CSc1nc2[nH]ncc2c(=O)n1-c1ccccc1Br)NCc1ccco1,1.1
O=C(O/N=C1\CCCc2ccccc21)c1ccc(F)cc1,i
CCOc1ccc(NS(=O)(=O)c2ccc3[nH]cc(C(=O)NCCOC)c(=O)c3c2)cc1,0.6
Clc1ccccc1C(c1nnnn1Cc1ccco1)N1CCN(Cc2ccco2)CC1 (stereo not drawn),i
COC(=O)C1C(=O)NCC1c1ccc(C)cc1 (stereo not drawn),i
COc1ccc(NC(=O)Nc2ccc(N3CCCC3=O)cc2)cc1OC,0.4
C/C(=N\NC(=O)Cc1ccc(Cl)cc1)c1ccccn1,i
O=c1c(-c2ccc(F)cc2)coc2cc(O)ccc12,1.0
Cc1ccc(CNC(=O)CSc2ncccn2)cc1,0.3
COc1ccc(S(=O)(=O)N2CC3CCCN3c3ccc(C(F)(F)F)cc32)cc1 (stereo not drawn),i

# Filtered by structure, those above with a CF3 group (2)
SMILES,H5N1 antiviral
CC1(C)CC(NC(=O)C(F)(F)F)CC(C)(C)N1OC(=O)c1ccco1,0.2
COc1ccc(S(=O)(=O)N2CC3CCCN3c3ccc(C(F)(F)F)cc32)cc1 (stereo not drawn),i

# Other records:
SMILES,H5N1 antiviral
Clc1ccc(Nc2ncnc3ccc(Br)cc23)cc1,6.0
O=C(NCCSCc1ccc(Cl)cc1Cl)c1ccc(CN2CCOCC2)cc1,2.1
Cc1nn(CCCNC(=O)C2CCCO2)cc1Br (stereo not drawn),0.8
CC(C)Cc1cc(C(=O)Nc2sc3c(c2C#N)CCCC3)no1,i
CN(C)CCNC(=O)c1cc2ccccc2oc1=O,i
COc1ccc(OC)c(Nc2ncnc3c2cnn3-c2ccccc2)c1,i
COc1ccc(-c2nnc(SCCc3ccccc3)n2N)cc1,i
CCN(CCNC(=O)CN1CCN(Cc2ccc(Cl)cc2)C1=O)c1ccccc1,i
CCn1cc([N+](=O)[O-])c(C(=O)Nc2cc(C)on2)n1,i
COc1cc(/C=N/N=C(/N)c2nonc2N)cc(Br)c1OCc1cccc(C)c1,i
COc1ccc2nc(NC(=O)C3CCCN(S(=O)(=O)c4c(C)noc4C)C3)sc2c1 (stereo not drawn),i
COc1ccc(C)cc1S(=O)(=O)N(C)CC(=O)NC1CCCCC1,0.4
Cc1cc(Nc2ccc(F)c(Cl)c2)n2ncnc2n1,1.7
COc1ccc(-c2nc(-c3cccc(C)c3)nc(Cl)c2C#N)cc1,1.0
O=C(c1cccc(C(=O)N2CCN(c3ccccc3F)CC2)c1)N1CCN(c2ccccc2F)CC1,i
COc1ccc(C(=O)N[C@H](C(=O)Nc2ccc(OC)nc2)C(C)C)cc1,i
COc1ccc(CCNC(=O)CC2Nc3ccccc3NC2=O)cc1OC (stereo not drawn),i
Cc1oc(CC(C)C)c(CN)c1C(=O)O,i
Cn1c(Oc2ccc3c(c2)OCO3)nc2c1c(=O)n(Cc1ccccc1)c(=O)n2C,0.9
COc1ccc(S(=O)(=O)Nc2cc(C)ccc2OC)cc1C,1.4
COc1ccc(CNC(=O)C(C)N=C2NS(=O)(=O)c3ccccc32)cc1OC (stereo not drawn),0.5
CN(C)S(=O)(=O)c1cccc(C(=O)NCC2CCCO2)c1 (stereo not drawn),i
O=C(Nc1cccnc1)c1ccccc1O,i
COCCOC(=O)C1=C(C)NC2=C(C(=O)CCC2)C1c1cc2c(cc1Br)OCO2 (stereo not drawn),0.1
CCOC(=O)c1cc2sc(C)cc2n1CC(=O)N1CCN(C(=O)c2ccco2)CC1,i
NC(=O)c1ccccc1OCC(=O)O,1.2
Cc1cccc(/C(N)=N/OC(=O)Cc2cccs2)c1,1.6
CCCCNC(=O)Nc1ccccc1C(=O)NCc1ccco1,3.9
CCc1c(C)nc(N)n2c(SCC(=O)Nc3ccccc3)nnc12,i
Cc1cccc(OCCCC(=O)Nc2ccc(S(=O)(=O)Nc3onc(C)c3C)cc2)c1,i
Cc1nc(CN2CCCC2=NC#N)n(-c2ccccc2)n1,0.7
COc1ccc(NC(=O)/C(C#N)=C\c2cc(C)n(-c3ccc(Oc4ccc([N+](=O)[O-])cn4)cc3)c2C)cc1,i
CCCCCC(C)n1[nH]c(=O)cc1N (stereo not drawn),0.3
CSc1cccc(NC(=O)COc2cccc3ccccc23)c1,i
CN(CC(=O)N1CCN(c2ccccc2F)CC1)S(=O)(=O)c1cnc[nH]1,i
COc1cc2c(cc1OC)C(C(=O)NCc1cccnc1)C(c1cccnc1)N(C)C2=O (stereo not drawn),i
Cc1nnc(NC(=O)Cc2cccs2)s1,0.6
COc1ccc(Nc2nc(N3CCCCC3)c3ccccc3n2)cc1,i
Cc1ccc(-n2c(=O)cc(NCc3cccnc3)[nH]c2=O)cc1,i
O=C(OCC(=O)c1ccc(S(=O)(=O)N2CCCC2)cc1)C1=COCCO1,i
COc1cc(C)nc(Oc2ccc(=O)[nH]n2)n1,i
CCOC(=O)c1c(C)oc2c1c(C=NCC1CCCO1)c(O)c1ccccc12 (stereo not drawn),i
CCCCOC(=O)C(C)Oc1ccc(=O)n(-c2ccccc2)n1 (stereo not drawn),1.4
COc1cccc(OC)c1OCCN1CCN(C(=O)c2ccco2)CC1,2.2
OCCCc1nc2ccccc2n1CCc1ccccc1,i
OCCCc1nc2n(n1)C(c1cccs1)C=C(c1ccccc1)N2 (stereo not drawn),2.2
N#Cc1c(-c2ccccc2)cc(-c2ccco2)c(C#N)c1N,5.2
CCOC(=O)CCCNC(=O)COc1ccccc1C#N,1.2
O=C(OCc1ccc2c(c1)OCO2)c1ccc(S(=O)(=O)N2CCCC2)cc1,i
O=C(Nc1cnccn1)c1cccs1,1.8
COCC(C)NCc1cccc([N+](=O)[O-])c1 (stereo not drawn),i

# Screening results: PubChem, SRMLSC
